# Assay outcomes: PubChem, National Center for Advancing Translational Sciences (NCATS)
# VDR inh = vitamin D3 receptor (human) inhibition; hit rate 0.93% among 400,000; P11473; AID 504847; Potency, µM, without a hit: max response, negative = inhibition, usual class: inhibitors; VDR-SRC2-3 peptide fluorescence polarization, 2 h; active = well fitted inhibition curve with a large enough effect; inconclusive = small, poorly fitted or top-dose-only effect, or another doubt; inactive = no such curve, though single readings can be large or run the other way; also: series mostly up to about 120 µM
# Target sequence (P11473 whole entry, looked up): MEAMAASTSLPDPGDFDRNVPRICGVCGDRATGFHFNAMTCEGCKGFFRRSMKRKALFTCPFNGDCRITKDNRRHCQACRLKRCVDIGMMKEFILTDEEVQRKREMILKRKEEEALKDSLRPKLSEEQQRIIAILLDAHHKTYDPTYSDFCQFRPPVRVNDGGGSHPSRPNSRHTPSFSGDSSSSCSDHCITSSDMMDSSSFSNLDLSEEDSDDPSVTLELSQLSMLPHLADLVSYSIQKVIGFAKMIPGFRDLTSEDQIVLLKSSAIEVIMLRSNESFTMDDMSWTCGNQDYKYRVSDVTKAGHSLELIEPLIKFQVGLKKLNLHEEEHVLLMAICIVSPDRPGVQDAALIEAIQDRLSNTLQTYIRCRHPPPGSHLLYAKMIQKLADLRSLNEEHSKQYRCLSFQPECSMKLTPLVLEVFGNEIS
#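 Fluorescence polarization assay of small-molecule disruption of VDR binding to coregulator peptide SRC2-3. Compounds and controls pin-transferred, then read after 2 h incubation at ambient room temperature.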
# Numbers without * were called inactive; ? = inconclusive; & = joins results of further samples. % is scaled to controls: 0 for no effect and ±100 for the full control effect; potency is read from the fitted curve at half-maximal effect.
VDR inh,canonical_smiles
-19.9%,Cc1[nH]c2ccccc2c1C(=O)CSC(=S)N(C)C1CCCCC1
15.8%,CCOc1ccccc1NC(=O)C1CCCN1C(=O)OCc1ccccc1 (centres undefined)
?,O=S(=O)(Nc1cc(Sc2ncn[nH]2)c(O)c2ccccc12)c1ccccc1
0.3%,O=C(NC(=S)Nc1ccc(-c2ccc(CO)o2)cc1)c1cccs1
-15.8%,CN(CC(=O)Nc1c(Cl)cccc1Cl)C(=O)c1n[nH]c2ccccc12
-1.5%,CCOC(=O)[C@H]1[C@H]2COc3ccc(C)cc3[C@@H]2N2C(=O)CN(Cc3ccc(C)cc3)C(=O)[C@@]12C
-9.6%,Cc1ccc(NS(=O)(=O)c2ccc(Cl)c(NC(=S)NC(=O)C3CCCCC3)c2)cc1Cl
-17.6%,Cc1cc(NC(=O)C2CC=CCC2C(=O)O)no1 (centres undefined)
-10.4%,COc1ccccc1OCC(=O)NNC(=O)c1cccs1
-19.8%,Cc1ccc(CN(C)C(=O)c2cccc(S(=O)(=O)N3CCCC3)c2)o1
-4.0%,Cc1ccc(COC(=O)CN2C(=O)NC3(CCCC3)C2=O)cc1
-1.9%,COc1ccc(-c2nc(C)sc2CC(=O)O)cc1
26.1%,Cn1c(-n2c(CCCN3C(=O)c4ccccc4C3=O)nc3ccccc3c2=O)nc2ccccc21
3.9%,CC(Sc1nnnn1C)C(=O)Nc1ccccc1 (centres undefined)
6.4%,COc1ccc(C(=O)c2c3ccc(C(F)(F)F)cc3[n+]([O-])n2CCCN)cc1

# (further entries)
VDR inh,canonical_smiles
5.3%,COC(=O)CC1(c2ccccc2)C(=O)c2ccccc2C1=O
0.2%,CC(=O)NC1(c2cccc(F)c2)CCN(CC(=O)NC2CCCCC2)CC1
-4.3%,O=C(c1cc(COc2c(F)cccc2F)on1)N1CCN(C2CCCCC2)CC1
-18.4%,Cn1cccc1CNC(=O)Nc1ccccc1
0.9%,CCN(CC(=O)Nc1ccccc1OC)C(=O)C1CCC1
-4.2%,COc1cccc(C(=O)Nc2nc(-c3nnn(-c4cccc(Cl)c4C)c3C)ns2)c1
-21.6%,CC(C)NC(=O)COC(=O)CNC(=O)c1cc(Cl)cc([N+](=O)[O-])c1
-9.9%,COc1cc(C)c(C(C)C)cc1S(=O)(=O)N1CCOCC1
7.5%,COCCCNC(=O)CCCn1c(=O)c2ccccc2n(CC(=O)Nc2c(C)cccc2C)c1=O
-7.8%,COc1ccc(S(=O)(=O)Cc2ccc(C(=O)N3CCOCC3)o2)cc1
-5.9%,O=C(O)c1ccc(Br)cn1
-3.9%,COc1cccc(C(=O)NC2CCCc3ccccc32)c1OC (centres undefined)
3.5%,COc1cc(OC)cc(C(=O)NC(=S)N(Cc2ccccc2)C(C)C)c1
1.7%,COc1ccccc1N1C(=O)C2CC(C)=C(C)CC2C1=O (centres undefined)
12.3%,O=C(COC(=O)Cc1ccc(S(=O)(=O)N2CCOCC2)s1)Nc1ccccc1

# Rewritten with bars between the fields: entries from further up.
Molecule | VDR inh
COc1cc(C)c(C(C)C)cc1S(=O)(=O)N1CCOCC1 | -9.9%
COCCCNC(=O)CCCn1c(=O)c2ccccc2n(CC(=O)Nc2c(C)cccc2C)c1=O | 7.5%
COc1ccc(S(=O)(=O)Cc2ccc(C(=O)N3CCOCC3)o2)cc1 | -7.8%
O=C(O)c1ccc(Br)cn1 | -5.9%
COc1cccc(C(=O)NC2CCCc3ccccc32)c1OC (centres undefined) | -3.9%

# Carrying on:
VDR inh,canonical_smiles
2.4%,COc1ccc(S(=O)(=O)NNC(=O)C23CC4CC(CC(C4)C2)C3)cc1
-19.2%,Cc1ccc(-n2nc3ccc(NC(=O)c4cc5ccccc5o4)cc3n2)cc1
17.3%,COc1ccc(N2CC(NC(=O)/C=C\c3ccc4c(c3)OCO4)CC2=O)cc1 (centres undefined)
12.7%,Cc1ccccc1-c1ccc(=O)n(CC(=O)Nc2ccc(S(=O)(=O)N(C)C)cc2)n1
-15.0%,NC(=O)N\N=C/C=C/C=C/c1ccc(F)cc1
0.2%,COc1c(F)c(F)c(C(=O)Nc2ccc(-c3nc4ccccc4[nH]3)cc2)c(F)c1F
-18.6%,COC(=O)C[C@H](NC(=O)Cn1cc(C)c(=O)[nH]c1=O)C(=O)OC
-22.0%,CC(NS(=O)(=O)c1ccccc1)C(=O)NC1CCCC1 (centres undefined)
1.3%,COc1cccc(NC(=O)c2ccc(-c3ccc([N+](=O)[O-])cc3)o2)c1
-10.2%,CCOC(=O)C1CCCN(c2c(Nc3cc(C)cc(C)c3)c(=O)c2=O)C1 (centres undefined)
6.6%,Cc1ccc(-c2nn(-c3ccccc3)cc2C(=O)OCC(=O)Nc2ncc(Cl)cc2Cl)cc1
3.3%,CCCNC(=O)CCc1c(C)nc2c(c(C)nn2-c2ccccc2)c1C
0.7%,Cc1cc(C)n(-c2ccc(C(=O)N3CCN(c4ccccn4)CC3)cc2)n1
-15.7%,Cc1ccc(CNC(=O)Cn2nnc3ccccc3c2=O)cc1
70.8µM*,CC(C)N1C(=O)/C(=C/c2nc3ccccc3c(=O)n2-c2ccccc2)c2ccccc21

# Next section.
VDR inh,canonical_smiles
6.1%,CCOC(=O)N1CCN(C(=O)C2CCN(S(=O)(=O)c3ccc(Cl)cc3)CC2)CC1
-11.8%,COc1ccccc1CNC(=O)CCCNC(=O)Cn1cnc2sc(C)c(C)c2c1=O
10.0%,C=CCc1cccc(C=Nc2ccc(Br)cc2)c1O
-13.9%,COc1ccc(/C=N/NC(=O)c2ccc(CSc3nc(C)cc(C)n3)cc2)cc1O
-21.6%,CCOC(=O)C1=C(C)NC(SCc2cc(=O)[nH][nH]2)=C(C#N)C1c1cccs1 (centres undefined)
79.4µM*,CC(C)(C)C1CCc2onc(C(=O)Nc3sc4c(c3C(N)=O)CCCC4)c2C1 (centres undefined)
-9.3%,O=C(Cc1cccs1)Nc1nnc(SCc2ccc(F)cc2)s1
7.8%,CCOC(=O)C1=C(Nc2ccccc2)OCC1=O
23.1%,COc1ccc(C(=O)NCC(C)(C)CNC(=O)c2ccc(OC)c(OC)c2)cc1OC
-7.7%,COC(=O)C(=O)C1CCc2c(Cl)cc(OC)c(OC)c2C1=O (centres undefined)
6.0%,CCOc1ccc(C(=O)Nc2ccc(S(=O)(=O)N3C[C@@H]4C[C@@H](C3)c3cccc(=O)n3C4)cc2)cc1
-1.1%,Brc1cccc(-c2nnn3c2nc(NC2CCCCC2)c2ccccc23)c1
-4.5%,Cc1ccccc1C(=O)NCCCNC(=O)c1ccccn1
?,CCOc1ccc(C(=O)c2ccc(O)c(O)c2O)cc1
-14.4%,CC(C)OP(=O)(c1ccccc1)c1ccccc1

# Continuation.
VDR inh,canonical_smiles
-5.6%,Cc1ccccc1NC(=O)C1CCN(S(=O)(=O)c2ccc3c(c2)NC(=O)C(C)S3)CC1 (centres undefined)
-0.6%,Clc1ccccc1CNCC1CCC(CNCc2ccccc2Cl)CC1 (centres undefined)
5.0%,Cc1ccc(CNC(=O)COC(=O)COc2ccc(C#N)cc2)cc1
-12.5%,CCCN(c1ccccc1C(=O)O)S(=O)(=O)c1ccc2c(c1)n(C)c(=O)n2C
1.8%,CCOC(=O)N1CCN(C(=O)c2c[nH]c3ccc(S(=O)(=O)N(C)c4cccc(C)c4)cc3c2=O)CC1
6.2%,CCOC(=O)c1sc(=S)n(-c2cccc(C(F)(F)F)c2)c1SC
-10.2%,C/C(=N\N1CCN(C2c3ccccc3-c3ccccc32)CC1)c1ccco1
?,CCOc1ccc2nc(N/C(N)=N/C(=S)Nc3ccc(C)c(C)c3)nc(C)c2c1
-15.8%,CCCCCSc1nnc2c(n1)[nH]c1c(C)cccc12
-13.7%,CCOC(=O)c1sc(N(Cc2ccccc2)C(=O)COC(=O)c2ccccc2O)nc1C
1.0%,COc1ccc(OC)c(NC(=O)c2cnn(-c3ccc(C)cc3)c2C2CCNCC2)c1
0.4%,Oc1c(Cl)cc(Cl)cc1CNc1ccc(Br)cn1
3.4%,C=CCOc1ccccc1CN1CCC(n2nccc2NC(=O)C2CC2)CC1
-11.4%,CCOc1ccccc1N1CCN(CC(=O)Nc2ccccc2C(=O)NC2CC2)CC1
-13.7%&2.2%,CC(C)OCCCNC(=O)CN1C(=O)COc2ccc(S(=O)(=O)N3CCCCCC3)cc21

# VDR inh: hit marks shown above.
VDR inh,canonical_smiles
70.8µM*,CC(C)N1C(=O)/C(=C/c2nc3ccccc3c(=O)n2-c2ccccc2)c2ccccc21
79.4µM*,CC(C)(C)C1CCc2onc(C(=O)Nc3sc4c(c3C(N)=O)CCCC4)c2C1 (centres undefined)

# Remaining list, next part
VDR inh,canonical_smiles
3.5%,COc1ccc(CCC(=O)NC2CC(=O)N(c3ccc(C)c(C)c3)C2)cc1 (centres undefined)
-15.7%,Cc1cc2occ(CC(=O)N(CC(C)C)c3c(N)n(Cc4ccccc4)c(=O)[nH]c3=O)c2cc1C
-5.3%,CCOC(=O)CSc1nc2sc3c(c2c(=O)n1-c1ccc(OC)cc1)CC(C(C)C)OC3 (centres undefined)
-2.9%,CC(C)C(=O)NC(=S)Nc1ccc(S(=O)(=O)NC2CCCCC2)cc1
-29.2%,COC(=O)c1cccc(Cn2nc(C)c([N+](=O)[O-])c2C)c1
1.2%,Cc1ccc(CNC(=O)c2cnn3c(C)c(Cc4c(F)cccc4Cl)c(C)nc23)cc1
-1.8%,C[C@@H](CN(C)C[C@H]1C(=O)O[C@@H]2C[C@@]3(C)CCC[C@]4(CO4)C3CC21)[C@H](O)c1ccccc1 (some centres undefined)
2.0%,COC(=O)c1sc(NC(=O)c2ccc([N+](=O)[O-])o2)c(C#N)c1C
-9.0%,CCOc1cccc(NC(=O)c2cccc(F)c2)c1
-10.9%,Cc1ccc(COC(=O)c2ccc(-c3nnn(Cc4ccc(C)cc4)n3)cc2)cc1
13.5%,COc1ccccc1C(=O)Nc1cccc(C(=O)OCc2cc(=O)n3nc(C4CC4)sc3n2)c1
12.4%,O=C(Nc1ccc(F)c(Cl)c1)C1CCN(S(=O)(=O)c2ccc3[nH]c(=O)ccc3c2)CC1
-13.2%,O=C(CSc1nc(-c2ccccc2)c(-c2ccccc2)o1)NCCCO
8.8%,CCCN1CNC(=S)N(c2cc(C)ccc2C)C1
-14.6%,Cc1cccc(N(C)S(=O)(=O)c2ccc3[nH]c(=O)c(=O)[nH]c3c2)c1

# Continuation.
VDR inh,canonical_smiles
2.1%,Cc1cc(C)cc(C(=O)Nc2nnc3n2CCS3)c1
1.5%,COc1cccc(Oc2coc3cc(OC(=O)N4CCOCC4)ccc3c2=O)c1
-14.0%,COc1cc(NS(=O)(=O)c2ccc(NC(=O)C34CC5CC(CC(C5)C3)C4)cc2)ncn1
-2.7%,Cc1ccc(CN(C(=O)COc2ccc(C(C)C)cc2)C2CCS(=O)(=O)C2)o1 (centres undefined)
-16.8%,COc1ccc(Br)cc1S(=O)(=O)n1ccnc1C
-15.4%,Cc1n[nH]c(C)c1S(=O)(=O)N1CCCC(C(=O)NC2CCCc3ccccc32)C1 (centres undefined)
-2.5%,COCCCNC(=O)Cn1cnc2c(NCc3ccccc3)ncnc21
13.4%,O=[N+]([O-])c1cccc(-n2nncc2-c2ccccc2)c1
-13.7%,O=C(Nc1cnn(Cc2ccc(F)cc2)c1)c1cc(-c2cccs2)on1
16.4%,CCN(CC)C(=O)Cn1cnc2sc(C(=O)Nc3cc(OC)c(OC)c(OC)c3)c(C)c2c1=O
-6.3%,Nc1cn(C2OC(CO)C(O)C2O)c(=O)[nH]c1=O (centres undefined)
-21.1%,O=C(NCc1ccncc1)Nc1cccc([N+](=O)[O-])c1
-12.5%,COc1cccc(C(=O)Nc2ccc3oc(-c4cccc5c(Br)cccc45)nc3c2)c1
-1.7%,CCOC(=O)c1cn[nH]c1NC(=S)Nc1ccc(OC)cc1
9.6%,O=C(NC1CC1)c1cccc(NC(=O)C2CCCCC2)c1

# Other structures follow:
VDR inh,canonical_smiles
-0.2%,Cc1ccc(-c2nnc(SCC(=O)N/N=C/c3ccccc3C(=O)O)n2C2CCCCC2)cc1
15.1%,CCC(C)Cn1c(C(C)C)nc2ccccc21 (centres undefined)
2.7%,Cn1c(SCC(=O)Nc2cccnc2)nnc1-c1ccccc1F
-12.0%,O=C(CSc1ccc2nnc(-c3ccccn3)n2n1)Nc1ccc(F)cc1F
-3.9%,C=CCn1c(SCC(=O)Nc2ccccc2)nnc1-c1cccc(S(=O)(=O)N2CCOCC2)c1
2.0%,COc1ccc2nc3sc(C(=O)NCCc4ccc(Cl)cc4)cc3cc2c1
13.0%,O=C(Nc1cccc(S(=O)(=O)N2CCCCC2)c1)C1CCC1
14.3%,CC(=O)N(Cc1ccc(F)cc1)Cc1nc2ccccc2c(=O)[nH]1
4.9%,O=C(c1ccc(S(=O)(=O)N2CCOCC2)cc1)N(c1ccccc1)C1C=CS(=O)(=O)C1 (centres undefined)
21.6%,CSCCC(NC(=O)/C(=C\c1ccc(Cl)cc1)NC(=O)c1ccccc1)C(=O)O (centres undefined)
-15.6%,CCOC(=O)c1c(C)n(C)c2cc(-c3cccc(C(F)(F)F)c3)c(O)cc12
0.8%&2.5%,O=C(NC1CCC(C(=O)O)CC1)OCc1ccccc1 (centres undefined)
-10.1%,COc1ccc(-c2ccc3c(c2)C2CC3CCN2C(=O)C2CCCCC2)cc1 (centres undefined)
14.6%,CCOc1ccc(S(=O)(=O)NCCCN2CCCC2=O)cc1
-0.2%,COc1ccc(C(=O)NCCc2ccccc2)cc1OC
-3.6%,CC1(C)Cc2c(sc3c2c(=N)n(Cc2ccco2)c(=O)n3CC(=O)Nc2cccc(Cl)c2)CO1

# 4 entries from above, arranged by the value under VDR inh, highest first.
molecule | VDR inh
CCOc1ccc(C(=O)Nc2ccc(S(=O)(=O)N3C[C@@H]4C[C@@H](C3)c3cccc(=O)n3C4)cc2)cc1 | 6.0%
Nc1cn(C2OC(CO)C(O)C2O)c(=O)[nH]c1=O (centres undefined) | -6.3%
Cn1cccc1CNC(=O)Nc1ccccc1 | -18.4%
CCOC(=O)C1=C(C)NC(SCc2cc(=O)[nH][nH]2)=C(C#N)C1c1cccs1 (centres undefined) | -21.6%

# Not all compounds are listed. The share of hits here may be higher or lower than overall.
